From PubChem BioAssay
ugtP null kill = growth inhibition of ugtP-null S. aureus, primary screen, RN4220 ugtP deletion, OD600; 16 h; some inactives read as strong as hits; growth inhibition, % (concentration not given with the values); AID 1259309, 2017; actives 0.54% (n = 330,000);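 active = z-score under -3 and OD600 up to 0.15 on both plates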;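 note: plate controls were untreated wells for no effect and antibiotic for full effect; wells of about 80 µL received 100 nL stock; the first replicate is given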
Bead autofluor = counter-screen for toxin protease inhibitors: compound fluorescence. compound autofluorescence counterscreen, microsphere flow cytometry; hits give high values. actives 3.1% (n = 360,000). AID 624483. fluorescence intensity (test concentration not listed);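 active = at least 3 SD above the mean of all compounds, about 16000 in these data; inconclusive = too few beads counted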;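 note: 100 nL of 1 mM stock went into each well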
BJeLR viability = MLPCN primary cell-based screen for lethality selective to Ras in HRASV12 cells | inhibition, % (concentration not given with the values) | actives 0.17% (n = 300,000) | BJeLR (HRASV12) viability, CellTiter-Glo ATP luminescence, 48 h; reference of the scale not given here;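 active = replicate mean above 50%; inconclusive = above 50% but judged a plate artefact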;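 note: 50 nL library stock added to about 25 µL; numbers are from one replicate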
PrP 5UTR inh = inhibition of PrP 5' UTR reporter expression; cell-based PrP 5' UTR mRNA reporter, plate reader; inhibition, % (concentration not given with the values); actives 0.35% (n = 340,000); AID 488862, 2010;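 active = every replicate at 50% or more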;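 note: 0 = median of the neutral control wells; tested in H4 reporter cells; numbers are from one replicate; inactives centre near -14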
Mtb hypoxia inh = PubChem AID 1159583 | M. tuberculosis hypoxia-regulated fluorescent reporter, fluorescence | fluorescence inhibition, % (concentration not given with the values) | actives 0.1% (n = 300,000);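 active = 35 to 45% if threefold the growth effect, above 45% if 1.5-fold the growth effect; inactive = the rest, general growth blockers included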;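 note: wells of about 50 µL received 100 nL stock; 0% = vehicle wells and 100% = reference inhibitor wells; whole bacteria with a GFP reporter of the hypoxia response; strong numbers were not always called active; many hits fall short of the cut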
RN4220 kill = growth inhibition of S. aureus RN4220, primary screen, OD600 | inhibition, % (no concentration beside the values) | 16 h | actives 0.33% (n = 330,000);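 active = z-score of -3 or lower and OD600 up to 0.18 on both plates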;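 note: plate controls were untreated cells for no effect and reference antibiotic for full effect; stock transfer was 100 nL into about 80 µL; one replicate is shown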
Mtb hypoxia inh growth = second read-out of Mtb hypoxia inh, no call of its own (marks repeat the call); growth inhibition, %; measured here: M. tuberculosis growth (absorbance);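 0% = vehicle and 100% = reference antibiotic; read after six days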
An asterisk follows results filed as active; ? = inconclusive; . = no result given. Random draw from the library; any-hit rate near 3.9%.

mol	Mtb hypoxia inh	ugtP null kill	RN4220 kill	BJeLR viability	PrP 5UTR inh	Bead autofluor	Mtb hypoxia inh growth
Cc1ccc(CN2C(=O)N/C(=C/c3ccc4c(c3)n(C)c(=O)n4C)C2=O)cc1	-7	2	5.8	-1	.	.	0
CCc1c(C)c(C#N)c2nc3ccccc3n2c1N(C)C	.	2	0.8	.	-3	2119	.
O=C(NNC(=S)Nc1ccccc1)Nc1ccccc1	-2	-2	0.5	10	-32	1954	1
CCCOc1ccc(C(=O)NCCc2ccccc2)cc1	12	6	-0.3	-4	-36	2008	5
CCCCCSc1nncc(=O)[nH]1	7	12	7.3	-6	-6	8097	10
O=C(O)c1ccccc1S(=O)(=O)NCC(O)COC1CCCCC1 (stereo not drawn)	-9	1	1.9	2	-7	9319	6
COc1cccc(C2=CC(c3cccc(OC)c3OC)n3nnnc3N2)c1 (stereo not drawn)	8	0	13	13	-68	2235	4
O=C(NCc1ccccc1Cl)C1(S(=O)(=O)c2ccc(Cl)cc2)CC1	-6	6	6.5	4	-1	4528	-9
Cn1c(=O)c2c(-c3ccc(C(C)(C)C)cc3)n(CC3CCCO3)cc2n(C)c1=O (stereo not drawn)	2	2	4.6	12	-24	5659	10
CCOC(=O)c1c(NC(=O)CN2C(=O)NC3(CCCCC3C)C2=O)sc(C)c1C (stereo not drawn)	.	.	.	7	-4	11206	.
COc1cc2c(cc1OC)CN(CC(=O)NC(=O)NCc1ccccc1)CC2	0	4	9.3	-18	3	5799	5
Cc1ccccc1OCC(O)Cn1nnc2ccccc21 (stereo not drawn)	.	2	4.7	.	-95	4633	.

Record cards, from the list above.
O=C(NNC(=S)Nc1ccccc1)Nc1ccccc1 reads Mtb hypoxia inh = -2; ugtP null kill = -2; RN4220 kill = 0.5; BJeLR viability = 10; PrP 5UTR inh = -32; Bead autofluor = 1954; Mtb hypoxia inh growth = 1
O=C(NCc1ccccc1Cl)C1(S(=O)(=O)c2ccc(Cl)cc2)CC1 reads Mtb hypoxia inh = -6; ugtP null kill = 6; RN4220 kill = 6.5; BJeLR viability = 4; PrP 5UTR inh = -1; Bead autofluor = 4528; Mtb hypoxia inh growth = -9

Remaining list, next part.
mol	Mtb hypoxia inh	ugtP null kill	RN4220 kill	BJeLR viability	PrP 5UTR inh	Bead autofluor	Mtb hypoxia inh growth
CCC(C(=O)NCc1ccco1)N(C(=O)CNS(=O)(=O)c1ccc(C)cc1)c1ccccc1OC (stereo not drawn)	.	-1	2.1	7	-1	2693	.
Cc1cccc(OCC2CCCN(Cc3nc(C4CC4)no3)C2)c1 (stereo not drawn)	15	5	3.2	5	-15	4087	-6
O=C(/C=C/c1ccccc1)NNC(=O)c1ccco1	-15	-4	-0.7	-3	-6	3919	8
CCCCn1c(Nc2ccc(OC)cc2)nc2ccccc21	2	10	3.6	-2	-1	4034	2
O=S(=O)(c1cccc2cnccc12)N1CCNCC1	12	-5	4.9	.	9	4456	5
Cc1cc(S(=O)(=O)N2CCCOC2CNC(=O)C(=O)NCCCN2CCOCC2)ccc1F (stereo not drawn)	4	2	0.9	9	-6	5451	1
CC(=O)Nc1ccccc1C(=O)C(=O)Nc1cccc(C(=O)NCc2ccccc2)c1	2	3	2.6	-2	-10	2475	2
CCOc1cccc(CNc2nnnn2C)c1	8	12	-0.4	-2	-26	4111	9
CCc1ccc(C2=NN(S(C)(=O)=O)C(c3cccs3)C2)cc1 (stereo not drawn)	4	9	-0.1	-6	-45	19673*	-8
COc1ccc(O)c(/C=N/Nc2nc3ccccc3[nH]2)c1	.	.	.	2	-25	4190	.
NC(=O)C1CCN(CC(=O)Nc2ccccc2Sc2ccc(Cl)cc2)CC1	1	2	5.6	-15	-2	7567	-3
Cc1cc2nc3c(nc2cc1C)C1(C(=O)O)CCC3(C)C1(C)C (stereo not drawn)	.	2	-2.8	-6	4	4611	.
Nc1nc(CN2CCOCC2)cs1	8	4	1.7	1	-27	4256	3
O=C(NC1CCCC1)C(c1ccccc1)N(C(=O)c1ccno1)c1cccnc1 (stereo not drawn)	.	3	0.5	7	-38	4881	.
COc1ccc(NC(=O)c2nc[nH]c2C(=O)N2CCN(C(=O)OC(C)(C)C)CC2)cc1	1	-2	-0.1	-13	-12	3844	0
NC(=O)NC(=O)COC(=O)c1ccccc1OCc1ccc(F)cc1	5	9	3.1	-7	-26	4430	3
COCCCn1c(N)c(C(=O)Nc2ccccc2)c2nc3ccccc3nc21	-10	-14	-8.6	1	.	3998	15
CN(c1ccccc1)S(=O)(=O)c1cccc(C(=O)NCCc2ccc(O)c(O)c2)c1	14	7	7.1	7	-17	4240	5
CCN(CC)CCOC(=O)c1ccc(NC(=O)COc2cc(=O)n(CC)c3ccccc23)cc1	1	0	1.9	-4	-14	?	6
CC(CCc1ccccc1)NCC(O)c1ccc(O)c(C(N)=O)c1 (stereo not drawn)	5	-4	3.0	-11	-17	6059	3
CCCCSCCCNC(=S)Nc1ccccc1C	4	7	5.6	-1	-6	3905	-3
CCOC(=O)c1c(NC(=O)CSc2nc3c(c(=O)n(C)c(=O)n3C)n2CC)sc(C)c1C	6	8	1.1	-4	-13	7974	7
CCOC(=O)C(Cc1c[nH]c2ccc([N+](=O)[O-])cc12)(NC(C)=O)C(=O)OCC	-5	-4	-0.9	.	-8	?	5
CCN1CNC(=S)N(c2cc(C)ccc2C)C1	4	1	4.7	0	-56	21089*	9
CCCC(C)c1nnc(NC(=O)C2CC(=O)N(c3ccc(OCC)cc3)C2)s1 (stereo not drawn)	0	10	-2.0	3	-6	3545	-7
O=C(CCC1CCCCC1)NC1CCCCC1	.	5	-0.8	.	-30	7566	.
Cc1cc(OCC(=O)N2CCN(c3ccccn3)CC2)cc(C)c1Br	2	-5	2.2	-7	-14	6095	5
NC(=O)C1CCN(C(=O)N2c3ccccc3Sc3ccccc32)CC1	2	-7	3.9	-2	1	9931	8
CCC(C)(C)n1nnnc1CN1CCc2ccccc21	7	-7	-1.8	-6	-26	5708	13
CCn1c(Oc2cccc(Br)c2)nc2c1c(=O)n(C)c(=O)n2C	-8	12	7.2	-2	-28	4017	-5
CC(=O)c1cccc(NC(=O)c2cc(=O)[nH]c3ccc(S(=O)(=O)N4CCOCC4)cc23)c1	6	5	3.3	.	-6	3685	5
CN(C)S(=O)(=O)c1cccc(NC(=S)Nc2ccc(Cl)cc2Cl)c1	1	-16	8.0	-4	-6	.	-3
CCc1ccccc1NC(=O)C1CC(c2ccc(F)cc2)=NO1 (stereo not drawn)	5	-9	5.7	1	-12	4048	6
COc1ccc(CNC(=O)[C@@H](NC(=O)C2CCN(S(=O)(=O)c3ccc(C)cc3)CC2)C(C)C)cc1OC	-9	-7	-1.2	12	-13	5523	1
COc1ccccc1/C=C/C(=O)NC(=S)Nc1ccc(S(=O)(=O)N(C)c2ccccc2)cc1	.	-8	-4.0	-9	-8	5392	.
O=C(COC(=O)COc1ccc2c(c1)CCC2)Nc1ccccc1C(F)(F)F	-14	-4	-3.1	.	-12	8797	1
Cc1ccc(CNC(=O)C23CN(Cc4ccccc4)CC2C(c2cccc([N+](=O)[O-])c2)=NO3)cc1 (stereo not drawn)	5	-18	-2.7	-14	-13	4490	6
Cc1cccnc1CCNC(=O)CCc1nnc(CCc2ccccc2)o1	13	3	0.6	10	-13	4516	2
CCn1cc(C=NNC(=O)c2ccccc2Cl)cn1	2	2	2.5	.	.	.	5
CC(C)c1ccc(/C=C/C(=O)N2CCOCC2)cc1	14	5	4.8	2	-62	3258	10
CCc1cc2c(=O)c(-c3nc4ccccc4n3C)coc2c(CN2CCOCC2)c1O	16	2	3.4	14	4	2336	4
COc1cccc(C(=O)CC(=O)C(=O)Nc2ccc([N+](=O)[O-])cc2C)c1	-8	68	39	-9	-17	4048	5
CCN(CC)C(=O)N1CCN(c2c([N+](=O)[O-])c(=O)oc3ccccc23)CC1	-1	9	5.1	.	-17	5312	3
Cc1ccc(-n2nc3c(=O)n(CCCC(=O)N4CCC(C)CC4)nc(C)c3c2C)cc1	2	-9	-0.3	1	-6	5400	3
C=CCNC(=O)c1onc(CSc2ccc(C(C)C)cc2)c1C(=O)O	12	-4	19	-8	1	3454	10
O=C1CCCCc2sc(Br)c([N+](=O)[O-])c2N1	16	14	4.4	-16	-18	5586	2
CCCCOc1cccc(C(=O)NC(=S)Nc2cccc(NC(=O)c3ccccc3Cl)c2)c1	0	-23	6.7	-2	-7	2028	-1
O=C(N/N=C/C=C/c1ccccc1)C1CC1c1ccccc1 (stereo not drawn)	.	.	.	-10	-24	4213	.
CSc1nsc(SCc2ccc(F)cc2)n1	.	43	6.9	-7	-29	2645	.
Cc1cccc(OCC(=O)N(Cc2ccc(F)cc2)C2CCS(=O)(=O)C2)c1C (stereo not drawn)	2	8	3.4	1	-11	5970	0
COc1cc(OC)c(C2=NOC(C(=O)NCc3cccnc3)C2)cc1Cl (stereo not drawn)	9	1	3.2	-9	-8	3412	-2
CCCCc1noc(-c2c(-c3ccccc3Cl)noc2C)n1	17	1	46	-5	-2	4035	2
Cc1nc2ccccc2c2nc(NC(=O)C(F)(F)F)nn12	10	8	12	-12	-11	3484	6
COc1ccc(N/N=C(/C)c2cnnc(-c3ccccc3)n2)cc1	.	.	.	5	-64	9333	.
Cc1cccc(N(C(=O)Cn2nnc(-c3ccc(C)o3)n2)C(C(=O)NC2CCCC2)c2ccncc2)c1 (stereo not drawn)	9	3	1.7	-4	-27	3928	4
C=C(C)CSc1nc2sc3c(c2c(=O)n1-c1ccc(C)cc1)CCN(C)C3	2	12	0.0	18	-6	3913	14
O=C1NC(c2ccc(Cl)cc2)Oc2ccccc21 (stereo not drawn)	-8	1	3.6	-5	-8	3967	-2
Cn1cc(/C=N/NC(=O)c2ccccc2O)c2ccccc21	.	.	.	-13	-31	4602	.
CC(=O)Nc1ccc(S(=O)(=O)NC2=C(N3CCN(C)CC3)C(=O)c3ccccc3C2=O)cc1	0	3	8.4	7	-1	4353	-3
O=CN1CCN(C(=O)C(=O)c2cn(CC(=O)N3CCCCC3)c3ccccc23)CC1	-8	2	1.6	1	-5	6083	-8

The results go on.
mol	Mtb hypoxia inh	ugtP null kill	RN4220 kill	BJeLR viability	PrP 5UTR inh	Bead autofluor	Mtb hypoxia inh growth
COCCCNC(=S)N(CCCN(C)C)Cc1cc2cc3c(cc2[nH]c1=O)OCCO3	-3	2	3.7	7	-12	4178	-2
COC(C/C=C/[C@H](O)[C@@H](C)OCc1ccccc1)OC	.	.	.	-9	-17	3642	.
CC[C@@H](C)CN1C(=O)N[C@@H](CCc2ccccc2)C(C(C)=O)=C1C	.	.	.	-9	-21	4140	.
O=S(=O)(c1ccc(Br)c2ccccc12)N1CCOCC1	13	-2	3.5	-4	-24	.	0
CC1CN(S(=O)(=O)c2ccc(C(=O)Nc3nnc(-c4ccc5c(c4)CCCC5)o3)cc2)CC(C)O1 (stereo not drawn)	-1	99*	99*	25	9	5629	-1
Cc1cc(O)c(C(C)C)cc1NC1=NS(=O)(=O)c2ccccc21	3	10	1.7	-9	-6	16315*	0
O=C(c1ccc(=O)oc1)N1CCOCC1	6	-8	-17	11	-18	2655	4
O=C(CN1C(=O)/C(=C\c2ccco2)SC1=S)Nc1ccc(O)cc1C(=O)O	-3	12	6.4	7	-11	5541	6
CCNC(=O)CCC(=O)Nc1cc(Cl)ccc1C	7	-1	7.0	-3	-40	3309	7
Cc1cc(C)nc(-n2ncc3c2CC(c2ccc(C(C)C)cc2)CC3=O)n1 (stereo not drawn)	7	-11	6.2	-7	-10	2177	2
C[n+]1cccc2ccc3c(c21)OC(N)=C(C#N)C3c1ccccc1 (stereo not drawn)	.	.	.	-3	-34	4999	.
COc1ccc(C=NNC(=O)C[n+]2ccccc2)c(OC)c1OC	7	5	4.9	.	.	.	4
Cc1ccc(S(=O)(=O)NCC(=O)OCC(=O)Nc2cccc(S(=O)(=O)N3CCOCC3)c2)cc1	4	3	5.2	.	-5	5824	-2
